# FPRL1 binder = human FPRL1 ligand, with FPR counter-screen; inhibition, %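 (tested at 6.7 µM)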; P25090; hit rate 0.3% among 24,000; FPRL1-expressing cells, fluorescent ligand binding inhibition, flow cytometry;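 note: 0% = buffer alone and 100% = receptor blocker peptide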
# Target sequence (P25090 whole entry, looked up): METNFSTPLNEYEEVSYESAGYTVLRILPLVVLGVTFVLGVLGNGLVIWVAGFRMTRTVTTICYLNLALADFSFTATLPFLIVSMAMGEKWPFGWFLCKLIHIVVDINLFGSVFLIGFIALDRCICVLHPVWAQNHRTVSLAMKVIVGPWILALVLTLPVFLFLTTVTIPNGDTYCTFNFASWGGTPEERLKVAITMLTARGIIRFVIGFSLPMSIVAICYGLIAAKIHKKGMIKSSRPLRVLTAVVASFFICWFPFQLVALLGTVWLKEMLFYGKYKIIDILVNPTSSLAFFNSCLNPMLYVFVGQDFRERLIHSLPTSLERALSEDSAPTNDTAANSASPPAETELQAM
# VCAM-1 inhibition = inhibitors of TNFa-induced VCAM-1 surface display, cell-based, plate reader, pooled HUVEC, TNFa stimulus (AID 454); HUVEC TNFa-induced VCAM-1 surface immunofluorescence, plate reader; numbers were filed only for top-ranked candidate wells; inhibition, % at 5 µM; hit rate 0.2% among 10,000;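 active = compound among top-ranked inhibitors of TNF-induced VCAM-1 adhesion protein staining, with the hit upheld by image or statistical review; inactive = the rest, including hits rejected on review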;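 note: 0% = TNFa with vehicle and 100% = cells without TNFa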
# VCAM-1 up imaging = enhancers of VCAM-1 display on endothelial cells, imaging, high-content imaging, pooled HUVEC, TNFa stimulus (AID 457); Pooled HUVEC, TNFa-induced VCAM-1 immunofluorescence imaging; hits of this screen are not shown here; calls only; hit rate 0.2% among 10,000;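 active = a top-ranked rise in VCAM-1 staining upheld on image or statistical review; inactive = the rest, including candidates rejected on review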;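 note: compounds tested at 5 µM in the well; cells exposed to compound for 24 hours before fixing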
# FPR binder = human FPR ligand, with FPRL1 counter-screen | inhibition, %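 (tested at 6.7 µM)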 | AID 440 | hit rate 0.74% among 24,000 | P21462 | FPR-expressing cells, fluorescent ligand binding, flow cytometry;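 note: 0% = buffer wells and 100% = receptor blocker peptide wells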
# Target sequence (P21462 whole entry, looked up): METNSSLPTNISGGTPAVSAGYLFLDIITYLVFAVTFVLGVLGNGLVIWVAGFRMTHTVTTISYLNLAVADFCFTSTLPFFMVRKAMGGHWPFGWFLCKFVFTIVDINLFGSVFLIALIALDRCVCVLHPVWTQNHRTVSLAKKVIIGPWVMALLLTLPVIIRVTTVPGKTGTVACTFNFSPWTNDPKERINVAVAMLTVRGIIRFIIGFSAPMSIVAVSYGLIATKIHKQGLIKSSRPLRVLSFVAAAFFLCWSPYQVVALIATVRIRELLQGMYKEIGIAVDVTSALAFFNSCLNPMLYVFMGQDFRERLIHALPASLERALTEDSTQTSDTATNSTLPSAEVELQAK
# VCAM-1 imaging = inhibitors of TNFa-induced VCAM-1 surface display, imaging, high-content imaging, pooled HUVEC, TNFa stimulus (AID 456). hit rate 0.2% among 10,000. inhibition, % at 5 µM, or IC50 in µM where a hit was titrated. HUVEC TNFa-induced VCAM-1 surface expression, immunofluorescence imaging; numbers were filed only for top-ranked candidate wells;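 active = top tenth filtered wells with inhibition above zero that passed visual or statistical confirmation; inactive = the rest, including hits rejected on review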;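 note: 0% = stimulated vehicle wells and 100% = unstimulated cells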
# An asterisk follows results filed as active; i = inactive; · = no result given.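 Rule for the calls, unless noted: active = mean above 30%; inconclusive = self-fluorescent; inactive = the rest.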 This is a subset, so the mix of outcomes need not match the whole.
SMILES,FPRL1 binder,VCAM-1 inhibition,VCAM-1 up imaging,FPR binder,VCAM-1 imaging
Cc1[nH]nc2c1C(c1cccc(OC(=O)N3CCOCC3)c1)C(C#N)=C(N)O2 (configuration not stated),5,·,·,0,·
Cn1nc(C(=O)Nc2cccc(C(F)(F)F)c2)ccc1=O,-1,i,i,5,i
CCc1cc(=O)n2[nH]c(C)c(-c3ccccc3OC)c2n1,1,i,i,16,i
CCCOC(=O)NC(CC)COC(=O)Nc1cccc(C)c1C (configuration not stated),-6,·,·,-4,·
Nc1ccc(Nc2ccccc2)cc1,29,·,·,17,·
CC(C)CCNC(=O)C(c1ccco1)N(CC1CCCO1)C(=O)Cn1nnc2ccccc21 (configuration not stated),7,i,i,9,i
O=C(NCc1ccccc1)C1CCN(S(=O)(=O)N2CCCCCC2)CC1,8,i,i,-2,i
O=c1cnnc(NCc2ccccc2)[nH]1,0,i,i,3,i
CCNC(=O)c1c(C)[nH]c(C(=O)OCC)c1C,8,·,·,2,·
COc1ccc(N(C(=O)c2cccc(OC)c2OC)C2C=CS(=O)(=O)C2)c(OC)c1 (configuration not stated),3,·,·,-2,·
Cc1onc(-c2ccccc2)c1C(=O)N1CCOCC1,5,i,i,7,i
CS(=O)(=O)N(CC(=O)Nc1ccc2c(c1)OCO2)Cc1ccc(Cl)cc1,-3,i,i,0,i
Cc1ccc(CNC(=O)CCCn2c(=O)[nH]c3ccccc3c2=O)cc1,0,·,·,2,·
CCOC(=O)CN1CC23C=CC(O2)C(C(=O)O)C3C1=O (configuration not stated),-9,·,·,-4,·
COc1ccc(-c2cc(C(=O)N3CCN(C(c4ccccc4)c4ccccc4)CC3)no2)cc1,1,·,·,5,·
CCCCCNC(=O)c1cc(S(=O)(=O)N2CCCCC2)ccc1F,2,·,·,1,·
CCCCOCCCNC(=O)COc1ccccc1,-1,i,i,1,i
Cc1nc2ccc(S(=O)(=O)NCC(=O)N3CCC(N4CCCCC4)CC3)cc2s1,3,·,·,-1,·
CCOC(=O)Cn1c(=O)oc2cc(S(=O)(=O)N3CCCC(C(=O)OCC)C3)ccc21 (configuration not stated),-4,·,·,-10,·
Cn1c(=O)[nH]c(=O)c2c1nc(N1CCCCCC1)n2CCCSc1nc2ccccc2o1,2,i,i,5,i
CCOC(=O)N1CCN(c2c(NCCN(C)Cc3ccccc3)c(=O)c2=O)CC1,-1,i,i,-5,i
COc1ccccc1CNC(=O)C1CCN(Cc2nc(-c3ccc(Cl)cc3)oc2C)CC1,-4,·,·,2,·
Cc1cc(N2CCC(C)CC2)nc2ccc(N3C(=O)CCC3=O)cc12,3,·,·,-6,·
CCOCCCN(Cc1cc2cc(C)cc(C)c2[nH]c1=O)C(=O)N(CC)CC,-2,i,i,-8,i
CCCCN(CC)S(=O)(=O)N1CCC(C(=O)NCCCN2CCOCC2)CC1,-6,·,·,-5,·

# As entered above:
# FPR binder, CCc1cc(=O)n2[nH]c(C)c(-c3ccccc3OC)c2n1 : 16
# FPR binder, Cc1onc(-c2ccccc2)c1C(=O)N1CCOCC1 : 7
# FPRL1 binder, CCOC(=O)N1CCN(c2c(NCCN(C)Cc3ccccc3)c(=O)c2=O)CC1 : -1
# FPRL1 binder, CCCCN(CC)S(=O)(=O)N1CCC(C(=O)NCCCN2CCOCC2)CC1 : -6

# (list continues)
SMILES,FPRL1 binder,VCAM-1 inhibition,VCAM-1 up imaging,FPR binder,VCAM-1 imaging
CCCOc1ccc(/C(O)=C2/C(=O)C(=O)N(c3cc(C)on3)C2c2ccc(C(=O)OC)cc2)cc1 (configuration not stated),-1,·,·,8,·
CCOC(=O)N1CCC(NC(=O)Cn2cc3c(n2)CCCCC3)CC1,0,·,·,0,·
COCCNC(=O)c1cc(-c2ccc(OC)c(OC)c2)on1,1,·,·,1,·
O=C(CCn1nc(-c2ccc(Cl)cc2)ccc1=O)N1CCOCC1,0,·,·,2,·
Cn1c2ccccc2c2c(C(=O)NCCCN3CCCC3=O)cn(C3CCCCC3)c(=O)c21,-8,i,i,0,i
CC(C)(C)n1ncc2c(=O)n(CC(=O)c3ccc(Cl)cc3)cnc21,2,·,·,-2,·
CC(C)(C)n1nc2c(c1NC(=O)COc1ccc(Cl)cc1)CSC2,-8,i,i,0,i
CCCCNC(=O)C1C2C=CC3(CN(Cc4ccc(C)cc4)C(=O)C13)O2 (configuration not stated),2,·,·,4,·
O=C1C2ON(c3ccc(Cl)cc3)C(c3ccco3)C2C(=O)N1c1ccccc1 (configuration not stated),-2,i,i,-1,i
CCOc1ccc(CC(=O)Nc2ccc(S(=O)(=O)Nc3cc(C)on3)cc2)cc1OCC,1,·,·,-1,·
COc1ccc(C2/C(=C(/O)c3cnn(-c4ccccc4)c3C)C(=O)C(=O)N2CCN(C)C)cc1OC (configuration not stated),-2,i,i,-6,i
CC(=O)N1CCc2c(sc(NC(=O)c3ccc(S(=O)(=O)N(C)C)cc3)c2C#N)C1,-2,i,i,-5,i
O=C(Nc1ccc(CN2CCCCC2)cc1)c1ccc2c(c1)OCO2,2,i,i,-2,i
CCCCNC(=O)CCn1nc(-c2ccccc2)ccc1=O,-3,·,·,-3,·
CCCS(=O)(=O)N1CCC(C(=O)NC2CCCC(C)C2C)CC1 (configuration not stated),-2,·,·,6,·
O=S1(=O)C=C(Sc2nnc(-c3ccccc3)o2)c2ccccc21,8,i,i,6,i
O=c1cc(-c2ccccc2)[nH]c2nc3ccccc3n12,-4,i,i,2,i
CCn1c(=O)cc(O)c2c(=O)n(C)c(=O)n(C)c21,4,·,·,-5,·
C=CCOC(=O)C1=C(C)Nc2nc3ccccc3n2C1c1ccncc1 (configuration not stated),12,·,·,-3,·
COc1ccc(Cn2c(-c3ccco3)nc3oc4ccccc4c(=O)c3c2=O)cc1,4,i,i,2,i
O=C(CN1C(=O)CCSc2ccccc21)Nc1cccc(F)c1,-9,·,·,-8,·
COc1ccc(Cn2c(CCC(=O)NCc3ccco3)nc3cccnc32)cc1,13,·,·,0,·
CCOC(=O)c1c(C)c(C(=O)NCc2ccccc2OC)c(C)n1C,-2,·,·,-1,·
CN(Cc1ccccc1)C(=O)CCS(=O)(=O)c1ccc2c(c1)n(C)c(=O)c(=O)n2C,1,·,·,-3,·
COc1ccc(C(=O)OCC(=O)c2ccc(C)c(S(=O)(=O)N3CCOCC3)c2)cc1OC,-3,·,·,4,·
SMILES,FPRL1 binder,VCAM-1 inhibition,VCAM-1 up imaging,FPR binder,VCAM-1 imaging
CC(C)c1ccc(-c2nc(N3CCCC3)nc3n[nH]c(N)c23)cc1,10,·,·,12,·
CCOc1ccc(N(CC(=O)NCc2ccc(OC)cc2)S(=O)(=O)c2c(C)noc2C)cc1,0,·,·,-4,·
COc1cccc(C(=O)Nc2c3c(nn2-c2cccc(C)c2C)CS(=O)C3)c1OC (configuration not stated),11,·,·,17,·
COc1ccc(NC(=O)Cn2cccc2)c(OC)c1,1,·,·,-3,·
CCOC(=O)Cn1nnc(-c2ccc(SC)cc2)n1,0,i,i,-16,i
CCSCCC(NC1=CC(=O)CC(C)(C)C1)C(=O)O (configuration not stated),-3,i,i,-6,i
CCOC(=O)C1CCCN(C(=O)c2cn(C)c3ccc(S(=O)(=O)N4CCCC4)cc3c2=O)C1 (configuration not stated),0,·,·,6,·
Cc1ccccc1OCC(O)CN (configuration not stated),8,i,i,-3,i
COc1cc(C2C(C#N)=C(C)NC3=C2C(=O)CC(C)(C)C3)ccc1O (configuration not stated),2,i,i,5,i
Cc1cc(-c2ccccc2)c2c3c(cn2n1)c(=O)n(C)c(=O)n3C,2,i,i,-3,i
COC(=O)c1cc2sc(Cl)cc2n1CC(=O)Nc1cccc(SC)c1,-4,·,·,5,·
O=C(c1ccco1)N1CCN(C(=O)c2ccc(Cn3cc(Br)cn3)o2)CC1,2,i,i,5,i
O=C(Nc1ccc(Cl)cc1)C1CC=CCC1C(=O)OCC(F)(F)C(F)F (configuration not stated),-1,i,i,1,i
CCCC(=O)N(c1ccc(F)cc1)C1C=CS(=O)(=O)C1 (configuration not stated),-5,·,·,2,·
Cc1noc(NS(=O)(=O)c2ccc(NC(=O)c3cnc4n(c3=O)CCS4)cc2)c1C,-3,·,·,4,·
CCCOC(=O)c1ccc(NC(=O)c2cnccn2)cc1,-11,·,·,0,·
O=C(O)C1CC=CCC1C(=O)Nc1cccc(F)c1 (configuration not stated),-2,i,i,8,i
CCN(c1ccccc1)c1nc2ccsc2c(=O)s1,-1,·,·,2,·
CCOC(=O)c1c(C)nn(Cc2cccc(Cl)c2)c1N,-4,·,·,5,·
O=C(CSc1nc2ccsc2c(=O)n1-c1ccccc1)N1CCCC1,-9,·,·,-6,·
Cc1ccc(Cl)cc1NC(=O)CCn1cccc1,2,·,·,-3,·
CCCS(=O)(=O)N1CCCC(C(=O)NC2CCCC(C)C2C)C1 (configuration not stated),4,i,i,-2,i
CCCCc1nc(NCCNC(=O)c2ccco2)c(C#N)c2c1CSC(C)(C)C2,1,i,i,5,i
CCOC(=O)CN1CC23C=CC(O2)C(C(=O)Nc2ccc(F)c(C)c2)C3C1=O (configuration not stated),-9,·,·,-11,·
CCOC(=O)c1c(C)oc2ccc(OCC(=O)N(CC)CC)cc12,-2,i,i,-4,i

# Reformatted tab-delimited: part of the list above
canonical_smiles	FPRL1 binder	VCAM-1 inhibition	VCAM-1 up imaging	FPR binder	VCAM-1 imaging
CCCCNC(=O)C1C2C=CC3(CN(Cc4ccc(C)cc4)C(=O)C13)O2 (configuration not stated)	2	·	·	4	·
COc1ccc(N(C(=O)c2cccc(OC)c2OC)C2C=CS(=O)(=O)C2)c(OC)c1 (configuration not stated)	3	·	·	-2	·
O=C(CSc1nc2ccsc2c(=O)n1-c1ccccc1)N1CCCC1	-9	·	·	-6	·

# The results go on:
SMILES,FPRL1 binder,VCAM-1 inhibition,VCAM-1 up imaging,FPR binder,VCAM-1 imaging
Cc1ccc(N(CC(=O)Nc2ccc3c(c2)OCCO3)S(=O)(=O)c2c(C)noc2C)cc1,4,·,·,-1,·
CCOC(=O)c1nnn(-c2nonc2N)c1-c1cccc2ccccc12,-2,·,·,3,·
CC1=C(C)C(=O)NC(Nc2nc(C)c3cc(C)cc(C)c3n2)N1 (configuration not stated),-2,i,i,-2,i
Cc1ccc(S(=O)(=O)NCc2ccc(C(=O)N3CCN(c4ccccn4)CC3)cc2)cc1,5,·,·,-1,·
O=C(C1CCCN1S(=O)(=O)c1cccc2cccnc12)N1CCc2ccccc21 (configuration not stated),1,·,·,-5,·
O=C1CCCC(O)=C1C(C#Cc1ccccc1)C1=C(O)CCCC1=O,4,·,·,47*,·
O=C(CN1CCN(c2nc(-c3ccccc3)cs2)CC1)Nc1ccc2c(c1)OCO2,5,i,i,9,i
COc1ccc(C(=O)Nn2c(C3CCC3)nc3ccccc3c2=O)c(OC)c1,-1,i,i,-1,i
COc1nc(OC/C(N)=N/O)nc(N2CCOCC2)n1,0,·,·,3,·
COc1ccc(OCC(=O)Nc2cc(-c3nn4c(C)nnc4s3)ccc2C)cc1,-1,·,·,0,·
COc1ccc2c(c1)c(CC(=O)O)c(C)n2C(=O)c1ccc(Cl)cc1,-5,i,i,-5,i
COc1cc(C)nc(NS(=O)(=O)c2ccc(C)cc2)n1,-5,i,i,4,i
CCOC(=O)c1c(C)[nH]c(C(=O)Cn2c(=O)oc3ccccc32)c1C,-4,i,i,4,i
Cc1ccc2c(c1)N(CCC(=O)NCCCOC(C)C)C(=O)C(C)O2 (configuration not stated),-2,·,·,6,·
Cc1cccc(-n2c(O)c(C=Nc3ccccc3N)c(=O)[nH]c2=O)c1,-4,i,i,3,i
Cc1cc2c(cc(C(=O)NCc3cccnc3)n2Cc2ccc(Cl)cc2)o1,-10,i,i,6,i
O=C(NCC1COCCO1)C1CCN(S(=O)(=O)c2ccccc2)CC1 (configuration not stated),14,i,i,8,i
O=C(Nc1ccc(OC(F)(F)F)cc1)C1CCCN(S(=O)(=O)c2cccnc2)C1 (configuration not stated),0,·,·,-3,·
O=C(c1cnc2n(c1=O)CCS2)N1CCc2ccccc21,8,i,i,10,i
Cn1cnnc1SCC(=O)Nc1sc2c(c1C#N)CCCCC2,2,i,i,-2,i
O=C(NCc1cccnc1)c1cnc2n(c1=O)CCS2,-1,·,·,2,·
CCc1ccc(NS(=O)(=O)c2cccs2)cc1,-6,i,i,-2,i

# Profiles, looked up by structure.
# `Cc1ccc(S(=O)(=O)NCc2ccc(C(=O)N3CCN(c4ccccn4)CC3)cc2)cc1` across the screens: FPRL1 binder: 5; VCAM-1 inhibition: ·; VCAM-1 up imaging: ·; FPR binder: -1; VCAM-1 imaging: ·
# `CCc1ccc(NS(=O)(=O)c2cccs2)cc1` across the screens: FPRL1 binder: -6; VCAM-1 inhibition: i; VCAM-1 up imaging: i; FPR binder: -2; VCAM-1 imaging: i
# `Cn1cnnc1SCC(=O)Nc1sc2c(c1C#N)CCCCC2` across the screens: FPRL1 binder: 2; VCAM-1 inhibition: i; VCAM-1 up imaging: i; FPR binder: -2; VCAM-1 imaging: i
